Source: PubChem BioAssay
RE007 growth inh: less growth of the S. pombe RE007 Vpr strain | S. pombe RE007 Vpr strain, BacTiter-Glo ATP luminescence, 24 h; control for the full effect not named in the record | Potency, µM (highest dose often 92.2 µM), for the others: top-dose activity change, negative = less growth | 360,000 tested, 0.21% active; active = well fitted falling curve with a large enough effect; inconclusive = small, poorly fitted or top-dose-only effect; inactive = no such curve, though single readings can be large or run the other way;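 also: nearly all actives have a fitted effect of over 50% in size; the assay follows cell death caused by Vpr and the record does not say whether a fall means rescue or toxicity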
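Fission yeast strain RE007, carrying one chromosomally integrated HIV-1 vpr copy, was seeded at OD 0.01 in PMG+AL medium with 23 nL pinned compound. After 24 h at 30 °C and 99% humidity, viability was read by BacTiter-Glo luminescence.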
2A StopGo: lowers the luciferase signal of an FMDV 2A StopGo reporter; 410,000 tested, 1.2% active; human cells with a luciferase reporter of 2A StopGo recoding; control for the full effect not named in the record; AID 1159524; Potency, µM (series often up to 57.9 µM), for the others: at the top dose signal change, negative = less light; active = well fitted falling curve with a large enough effect; inconclusive = small, poorly fitted or top-dose-only effect; inactive = no such curve, though single readings can be large or run the other way; tested in HEK293T cells; also: nearly all actives have a fitted effect of over 45% in size; luciferase light after 4 h
The depositor's hits bear a star; ? = inconclusive; [ ] = dose if it differs, or a comment. % is scaled to controls: 0 for no effect and ±100 for the full control effect; potency is read from the fitted curve at half-maximal effect. These rows are one share of the data. The share of hits here may be higher or lower than overall.

No.	mol	RE007 growth inh	2A StopGo
1	CCCCCn1c(N2CCC(Cc3ccccc3)CC2)nc2c1c(=O)[nH]c(=O)n2C	9%	?
2	CCCCNC(=S)N(CCCO)Cc1cc2cc3c(cc2[nH]c1=O)OCO3	2%	5%
3	CCOC(=O)C1=CC[C@@H](c2ccccc2)N(S(=O)(=O)c2ccc(C)cc2)[C@H]1c1ccccc1C	1%	-2%
4	CC1Oc2ccc(C#N)cc2N(Cc2ccc(F)cc2)C1=O (stereo not drawn)	6%	-11%
5	CC(C)(C)c1ccc(CC(=O)N2CCC2(C)C(=O)NS(=O)(=O)c2ccccc2C(F)(F)F)cc1 (stereo not drawn)	-3%	-14%
6	O=C(Nc1ccccc1Cl)c1ccccc1CC(O)(c1ccccc1)c1ccccc1	9%	0%
7	CN(c1ccccc1)S(=O)(=O)c1cc(C(=O)NCc2ccco2)ccc1Cl	-4%	-2%
8	C[C@H]1CN([C@@H](C)CO)C(=O)CCCn2nncc2CO[C@@H]1CN(C)C(=O)Nc1cccc2ccccc12	-2%	-12%
9	CC1Cc2cc(/C(O)=C3/C(=O)C(=O)N(CCCn4ccnc4)C3c3ccc([N+](=O)[O-])cc3)ccc2O1 (stereo not drawn)	-9%	-12%
10	COc1cccc(S(=O)(=O)N(C)C[C@H]2Oc3ncc(Br)cc3C(=O)N([C@@H](C)CO)C[C@@H]2C)c1	8%	21%
11	CNc1cncc(-c2cccc(O)c2)n1	21%	0%
12	CCCOc1ccc(F)cc1-c1cc(C(=O)NCCOC)[nH]n1	-11%	-15%
13	CSc1ccc(CN2CCC2(C)C(=O)Nc2ccc3c(c2)OCO3)cc1 (stereo not drawn)	-10%	-21%
14	O[C@@H]1C[C@H](c2ccc(Cl)cc2)N(Cc2cccs2)C[C@H]1n1cc(-c2ccc(F)cc2)nn1	-2%	-24%
15	COCCN1C[C@@H](CO)O[C@@H](n2cnc3c(NCCN(C)C)ncnc32)C1	5%	-10%
16	COCCN(Cc1ccc(C)cc1)C(=O)[C@H]1O[C@@H](n2ccc(N)nc2=O)[C@H](O)[C@@H]1O	33%	-6%
17	COC(=O)CNC(=O)C1Nc2ccccc2C2C=CCC12 (stereo not drawn)	-1%	-2%
18	Cc1c(C(=O)NCc2ccccc2C(F)(F)F)sc(=O)n1Cc1cccc(C(F)(F)F)c1	5%[18.4 µM]	-16%
19	Oc1ccc(C[C@H]2CNC(=S)N2CC2CCCN2C[C@H](Cc2ccc(O)cc2)N2C[C@H](Cc3ccccc3)N(CC3CCCCC3)C2=S)cc1 (stereo partly drawn)	-21%	-28%
20	CN1C[C@@H]2[C@@H]3C(=O)N(Cc4ccccc4)C(=O)[C@@H]3[C@](C)(C1=O)N2C(=O)c1ccc(Br)cc1	21%	-13%
21	COCOc1cccc(CN2CCC2(C)C(=O)Nc2cc(OC)ccc2OC)c1 (stereo not drawn)	4%	?
22	O[C@@H]1CN(CC2CCCCC2)[C@@H](c2ccccc2)C[C@H]1n1cc(-c2ccc(F)cc2)nn1	9%	46%[activator]
23	Cc1ccc(SC[C@H](C)CN2CCC(NC(=O)OCc3ccccc3)CCC2=O)cc1 (stereo partly drawn)	0%	-27%
24	Cc1cccnc1C(c1ccc(F)cc1)N(C)C(=O)C1CCN(CCOc2ccc(Cl)cc2Cl)CC1 (stereo not drawn)	1%	-8%
25	CCOC(=O)[C@]12CCC=C1N(Cc1cccc3ccccc13)C(=O)[C@H](CC(=O)NCc1cccc3ccccc13)C2	12%	3%
26	COc1ccc([N+](=O)[O-])c(C=CC(=O)c2ccccn2)c1	-23%	?
27	COc1cccc(Nc2nc(C(N)C(C)C)cs2)n1 (stereo not drawn)	-10%	-11%
28	Cc1ccc(C(=O)N(Cc2ccco2)c2c(N)n(Cc3ccccc3)c(=O)[nH]c2=O)cc1	6%	-16%
29	CNC(=O)Oc1c(C)[nH]ccc1=O	0%	3%
30	CCCCCC(=O)N1C[C@@H](O)[C@H](n2cc(COC(=O)c3ccccc3)nn2)C[C@@H]1c1ccccc1	15%	-7%
31	Cc1cccnc1C1=NOC(Cc2ccccc2)C(=O)N1Cc1ccc2c(c1)OCO2 (stereo not drawn)	2%[18.4 µM]	15%
32	CC(C)=CCC[C@H](C)C[C@@H]1Cc2[nH][nH]c(=O)c2[C@H](c2ccc(F)cc2)O1	5%	0%
33	CCOC(=O)C1=C(COC(=O)c2ccc(Br)c(S(=O)(=O)N3CCOCC3)c2)NC(=O)NC1C (stereo not drawn)	4%	?
34	OC(c1ccc(Cl)c(Cl)c1)c1ncc(-c2ccccc2Cl)[nH]1 (stereo not drawn)	-12%	46%[activator]
35	COc1ccc(Cc2c(-c3ccc(C)cc3)nc3c4ccccc4ccn23)c(C)c1	-21%	-19%
36	CC1(C(=O)NS(=O)(=O)c2cccc(C#N)c2)CCN1C(=O)c1ccccc1CCc1ccccc1 (stereo not drawn)	-7%[18.4 µM]	-12%
37	C[C@@H]1CN([C@H](C)CO)C(=O)CCCn2cc(nn2)CO[C@H]1CN(C)S(=O)(=O)c1ccc(F)cc1	3%	-9%
38	COCCNc1nc(NCc2cnc(C)cn2)c2sccc2n1	-24%	0%
39	CC1(C(=O)Nc2ccc3c(c2)OCCO3)CCN1C(=O)c1cccc(F)c1 (stereo not drawn)	7%[18.4 µM]	2%
40	C=Cc1ccc(Cn2c(C)c(C(=O)NCc3ccc(Cl)c(Cl)c3)sc2=O)cc1	0%[18.4 µM]	-25%
41	C#CCOCCOCCOCCNc1nc(N2CCN(C(=O)Cn3cc(CCO)nn3)CC2)nc(N2CCN(C(=O)[C@H](CCCCN)n3cc(CC(C)O)nn3)CC2)n1 (stereo partly drawn)	5%	-5%
42	CC1(C(=O)NS(=O)(=O)c2ccc(Cl)cc2)CCN1C(=O)C1(c2ccccc2)CCCC1 (stereo not drawn)	0%[18.4 µM]	15%
43	COC(=O)C[C@H]1C=C[C@@H](NS(=O)(=O)c2ccc(C)cc2)[C@@H](CO)O1	-9%	-13%
44	O=C(Nc1ccccc1)C1=C[C@H](C2CCCCC2)C[C@H](OCCCCO)O1	1%	42%[activator]
45	C#CCNC(=O)C[C@@H]1C[C@@]2(C(=O)OCC)CCCC=C2N(Cc2ccc3c(c2)OCO3)C1=O	17%	4%
46	COc1ccc(C(O)c2nc(-c3cnc4ccccc4c3)cs2)cc1 (stereo not drawn)	?	28%
47	O=C(Nc1ccccc1)Nc1nnc([C@H]2C[C@H](O)[C@@H](CO)O2)s1	13%[18.4 µM]	23%
48	Cn1c(=O)c2cc(NC(=O)CC(C)(C)C)ccc2n1-c1ccccc1F	-4%	9%
49	CC1=C(C(=O)N(C)C)CC(CC(=O)NC(c2ccccc2)c2ccccc2)C(=O)N1CCCN1CCCC1=O (stereo not drawn)	-5%	0%
50	Cc1onc(-c2ccccc2)c1C(=O)OCC(=O)Nc1ccccc1Cl	-14%	-10%
51	N#Cc1nc2ccccc2n1OCc1ccccc1	-3%	?
52	Cc1cccc(C)c1NC(=O)c1csc([C@@H]2O[C@H](CO)[C@H](O)[C@H](O)[C@H]2O)n1	10%	-9%
53	Cc1cc(Br)ccc1NC(=O)CN(C)C(=O)c1ccccc1OCc1c(C)noc1C	-9%	3%
54	O=C(CCc1ccccc1)N1Cc2cc(-c3cccc(F)c3)ccc2-n2nncc2C1	8%	-18%
55	COc1ccc(C(O)c2nc(/C=C/c3ccc(C(F)(F)F)cc3)cs2)cc1 (stereo not drawn)	6%	-25%
56	CC(C)CN(C(=O)COC(=O)CNC(=O)c1ccccc1F)c1c(N)n(Cc2ccccc2)c(=O)[nH]c1=O	-3%	-1%
57	CCC(C)[C@H]1CN=C(N)N1CCc1cccc(F)c1 (stereo partly drawn)	-7%	-20%
58	COc1ccc(-c2csc(C(NC(C)=O)c3cccc(F)c3)n2)cc1 (stereo not drawn)	0%[18.4 µM]	-11%
59	Cc1c(Cl)cccc1NC(=O)C1CC2CCC1C2 (stereo not drawn)	2%	-14%
60	O=C(C1CCCCC1)N1C[C@@H](n2cc(C3CC3)nn2)[C@H](O)C[C@@H]1c1ccc(Cl)cc1	21%	?

7 records picked at random from the list so far, as already listed:
No.	mol	RE007 growth inh	2A StopGo
42	CC1(C(=O)NS(=O)(=O)c2ccc(Cl)cc2)CCN1C(=O)C1(c2ccccc2)CCCC1 (stereo not drawn)	0%[18.4 µM]	15%
46	COc1ccc(C(O)c2nc(-c3cnc4ccccc4c3)cs2)cc1 (stereo not drawn)	?	28%
52	Cc1cccc(C)c1NC(=O)c1csc([C@@H]2O[C@H](CO)[C@H](O)[C@H](O)[C@H]2O)n1	10%	-9%
34	OC(c1ccc(Cl)c(Cl)c1)c1ncc(-c2ccccc2Cl)[nH]1 (stereo not drawn)	-12%	46%[activator]
39	CC1(C(=O)Nc2ccc3c(c2)OCCO3)CCN1C(=O)c1cccc(F)c1 (stereo not drawn)	7%[18.4 µM]	2%
41	C#CCOCCOCCOCCNc1nc(N2CCN(C(=O)Cn3cc(CCO)nn3)CC2)nc(N2CCN(C(=O)[C@H](CCCCN)n3cc(CC(C)O)nn3)CC2)n1 (stereo partly drawn)	5%	-5%
40	C=Cc1ccc(Cn2c(C)c(C(=O)NCc3ccc(Cl)c(Cl)c3)sc2=O)cc1	0%[18.4 µM]	-25%

The list continues:
No.	mol	RE007 growth inh	2A StopGo
61	Cc1ccc(C)c(OCC(=O)OCc2csc(CC(=O)Nc3ccccc3C)n2)c1	-9%	-24%
62	CCCNC(=O)c1onc(CSc2ccc(Cl)cc2)c1C(=O)NCCC(C)C	8%	-11%
63	COc1ccc(-c2csc(NC(C)c3nc4cc(Cl)c(N5CCCCC5)cc4n3CCCO)n2)cc1 (stereo not drawn)	11%	-24%
64	CC(=O)Nc1cccc(NC(=O)C2CCCO2)c1 (stereo not drawn)	1%	-10%
65	COC(=O)C1=C(c2cc3ccccc3o2)C[C@@H]2CC[C@H]1N2C(=O)NCc1ccc(F)cc1	9%	-13%
66	NC(=O)c1ccc(OCCC(O)N2CC=C(c3ccc(F)cc3)CC2)cc1 (stereo not drawn)	1%[18.4 µM]	-5%
67	Cc1sc2nc(-c3ccccc3F)oc(=O)c2c1C	-4%	10%
68	COc1ccc(CN2C(=O)CN(S(C)(=O)=O)CC2(C)C(=O)NCc2ccccc2)cc1OC (stereo not drawn)	0%	-13%
69	CN1CCN(C2CN(Cc3ccc([N+](=O)[O-])cc3)S(=O)(=O)C2)CC1 (stereo not drawn)	10%	-11%
70	FC(F)(F)c1ccccc1Cc1c(-c2cccc(Br)c2)nc2c3ccccc3ccn12	-18%	27%
71	Cc1cc2c(cc1C)NC1(C[C@H]3CCC(=O)N4CC[C@@H](C1)[C@@H]34)C(=NC(C)(C)CC(C)(C)C)N2 (stereo partly drawn)	-10%	-17%
72	Cc1cc(O)ccc1-c1ccc2nncn2c1	6%	-4%
73	COc1cccc(CN2CCC2(C)C(=O)Nc2cccc(NS(C)(=O)=O)c2)c1OC (stereo not drawn)	-17%	0%
74	O=C(NCCc1ccccc1Cl)c1cc(COc2ccc(F)cc2F)on1	-4%	-23%
75	CCCCC[C@@H](C)N1C[C@H](COCc2ccccc2)Oc2cc(N3CC[C@H](N(C)C)C3)ccc2S1(=O)=O	22%	1%
76	Cn1c(=O)c2[nH]c(=O)[nH]c2n(C)c1=O	-7%	-19%
77	C(=C\c1ccccc1)/CN1CCN(C(c2ccccc2)c2nnnn2C2CCCC2)CC1 (stereo not drawn)	-16%	-14%
78	COc1ccc(S(=O)(=O)N2CCCCC2)cc1NC(=O)Cc1ccc(Br)cc1	-16%	3%
79	CC(C)(CO)CN1CCC(n2nccc2NC(=O)C2CCOC2)CC1 (stereo not drawn)	3%	-13%
80	Cc1ccccc1-c1ccc2c(c1)C1c3c(-c4ccccc4)nnn3-c3ccccc3C(=O)N1CC2 (stereo not drawn)	10%	-19%
81	C=CC12CN(C)[C@@H]3C4CO[C@H](C[C@H]41)[C@]1(C(=O)Nc4ccccc41)[C@@H]32 (stereo partly drawn)	1%	-7%
82	COc1cccc(-c2cc3nc(NCCN4CCCC4)n(C)c(=O)c3s2)c1	-13%	-2%
83	CC(C)C1Cc2[nH]c(=S)[nH]c(=O)c2C(c2ccc(F)cc2)O1 (stereo not drawn)	14%	-18%
84	CC(C(O)c1cc(=O)c(OCc2ccccc2)co1)[N+](=O)[O-] (stereo not drawn)	11%	5%
85	C=CCN(CC=C)Cc1cc(=O)oc2cc(OC)c(Cl)cc12	-13%	-15%
86	Cc1cccc(C(=O)NC2CCN(S(=O)(=O)c3cccc(F)c3)CC2)c1	7%	-9%
87	COc1ccc(Br)cc1CNC(=O)C1CCCN(S(=O)(=O)N2CCC(C)CC2)C1 (stereo not drawn)	1%	-27%
88	Cc1ccc(S(=O)(=O)N(C)C[C@@H]2OCCCC[C@@H](C)Oc3ccc(NS(=O)(=O)c4c(C)noc4C)cc3C(=O)N([C@H](C)CO)C[C@@H]2C)cc1	22%	-13%
89	CCOC(=O)[C@]12CCC=C1N(Cc1cccc3ccccc13)C(=O)[C@H](CC(=O)NCc1cccc(C(F)(F)F)c1)C2	1%	-7%
90	CN(CCOc1ccc(Cl)cc1)C(=O)c1cccc(S(=O)(=O)N2CCN(c3ccccc3)CC2)c1	0%	?
91	COc1ccc(NC(=O)COC(=O)c2ccc(S(=O)(=O)N(C)c3ccccc3OC)cc2)cc1	18%	-11%
92	COCCCNC(=O)c1ccc2nc([C@@H]3O[C@H](CO)[C@H](O)[C@H](O)[C@H]3O)[nH]c2c1	18%	-10%
93	S=C(NCCc1ccccc1)N1Cc2cc(-c3ccccc3)ccc2-n2nncc2C1	12%	37%[activator]
